KCNQ2 inh: KCNQ2 potassium channel inhibitors, primary screen, cell-based, CHO-K1, FluxOR thallium flux, B-score (AID 2156). Potassium voltage-gated channel subfamily KQT member 2 (Rattus norvegicus), O88943. 20 min; stronger effect = lower value; only compounds with negative scores are shown here; some inactives read as strong as hits. B-score at 10 µM. actives 1.1% (n = 310,000);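 active means fluorescence ratio B-score at most minus 3 library SDs, with starting brightness B-score within 2 library SDs, cut at about -5.5 in these data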
Target sequence (O88943 whole entry, looked up): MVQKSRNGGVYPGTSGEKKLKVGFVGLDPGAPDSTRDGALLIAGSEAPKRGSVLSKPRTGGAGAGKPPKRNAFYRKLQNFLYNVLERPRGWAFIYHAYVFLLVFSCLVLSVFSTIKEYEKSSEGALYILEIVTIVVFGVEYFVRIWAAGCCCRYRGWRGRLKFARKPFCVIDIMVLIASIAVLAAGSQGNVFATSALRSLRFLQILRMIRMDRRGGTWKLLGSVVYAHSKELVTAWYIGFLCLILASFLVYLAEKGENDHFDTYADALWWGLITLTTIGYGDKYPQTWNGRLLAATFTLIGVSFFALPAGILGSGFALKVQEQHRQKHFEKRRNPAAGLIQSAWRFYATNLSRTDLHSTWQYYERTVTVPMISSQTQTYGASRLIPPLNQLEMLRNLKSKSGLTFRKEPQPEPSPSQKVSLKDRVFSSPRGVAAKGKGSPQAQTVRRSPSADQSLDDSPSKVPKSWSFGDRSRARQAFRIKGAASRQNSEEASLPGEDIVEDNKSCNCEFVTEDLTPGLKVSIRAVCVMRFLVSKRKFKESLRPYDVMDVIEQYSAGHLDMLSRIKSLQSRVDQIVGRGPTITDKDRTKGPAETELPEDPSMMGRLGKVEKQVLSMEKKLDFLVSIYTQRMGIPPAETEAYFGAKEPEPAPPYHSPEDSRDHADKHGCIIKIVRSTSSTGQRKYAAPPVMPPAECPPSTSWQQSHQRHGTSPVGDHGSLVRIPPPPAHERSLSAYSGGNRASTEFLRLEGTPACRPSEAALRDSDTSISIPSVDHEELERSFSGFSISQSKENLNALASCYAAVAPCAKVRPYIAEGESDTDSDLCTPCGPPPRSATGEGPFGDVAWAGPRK
KCNQ2 inh baseline: recorded beside KCNQ2 inh, whose call it bears; B-score; measured here: initial fluorescence intensity artifact check;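 brightness before thallium and not channel activity; 0 = typical well and far values either way flag optical interference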
Numbers without * were called inactive; i = inactive.

(1) NNC(=O)CCN1CCN(Cc2ccccc2)CC1
(2) Cc1ccc(CN(C(=O)c2c(F)cccc2F)C2CC(C)(C)NC(C)(C)C2)o1
(3) Cc1cc(=O)oc(C)c1C(=O)NC1CC(C)(C)NC(C)(C)C1
(4) Nc1nnc(SCC(=O)NCCNC(=O)CSc2nnc(N)s2)s1
(5) CC[C@@]12C(=O)N(c3cccc(Br)c3)C(=O)N1[C@H](c1ccc(Cl)cc1)[C@@H]1C(=O)N(C3CCCCC3)C(=O)[C@@H]12
(6) Cc1cc(N2C(=O)CCC2=O)n(-c2ccccc2)n1
(7) C=CCOC(=O)C1=C[C@H](c2csc3ccccc23)C[C@H](OCCCCO)O1
(8) CN(C)S(=O)(=O)N1CCN(S(=O)(=O)c2ccccc2)CC1
(9) CCOc1cc(/C=N/NC(=O)CCCC(=O)NC2CCCCC2)ccc1O
(10) Cc1ccc(S(=O)(=O)N2CCN=C2SCc2ccccc2)cc1
compound no.	1	2	3	4	5	6	7	8	9	10
KCNQ2 inh baseline	-0.91	0.73	-0.09	-0.01	-0.74	0.25	-0.84	-0.59	0.64	-2.05
KCNQ2 inh	i	i	i	i	i	i	i	i	i	i

(11) O=C(Nc1c2c(nn1-c1ccc([N+](=O)[O-])cc1)CS(=O)(=O)C2)c1ccccc1F
(12) COc1cccc(-c2nnn(CC(=O)Nc3cc(OC)c(NC(=O)c4ccco4)cc3OC)n2)c1
(13) COc1ccccc1/C=C\C(=O)NCC(=O)N/N=C(/C)c1cccc([N+](=O)[O-])c1
(14) Cc1cc(C(=O)OCC(=O)Nc2c(F)cccc2F)c(C)n1-c1ccccc1
(15) Cc1ccc(CC(=O)NCC(C)C)cc1
(16) O=C(NCCCn1ccnc1)/C(=C/c1cccnc1)NC(=O)c1ccco1
(17) CC(C)c1ccccc1OCCCCCNCCO
(18) O=C(NCc1ccco1)c1ccc2c(=O)n(-c3ccccc3)c(=S)[nH]c2c1
(19) CCC1(C(=O)OC)NC(c2cccc(F)c2)C2C(=O)N(C)C(=O)C21 (configuration not stated)
(20) CCCn1nnc(NC(=O)c2sc3ccccc3c2Cl)n1
compound no.	11	12	13	14	15	16	17	18	19	20
KCNQ2 inh baseline	-1.77	1.11	0.22	0.57	0.01	1.79	-0.31	1.79	1.87	-0.19
KCNQ2 inh	i	i	i	i	i	i	i	i	i	i

(21) COCCNC(=O)CN(C(=O)Cn1nnc2ccccc21)c1ccc(C)c(F)c1
(22) O=C(C1CCN(c2ccc(N3CCOCC3)nn2)CC1)N1CCN(c2ccc(F)cc2)CC1
(23) CCCCn1c(N)c(N(CCOC)C(=O)COC(=O)COc2cccc(C(C)=O)c2)c(=O)[nH]c1=O
(24) Cc1ccc(C(=O)Nc2ccc(N3CCOCC3)c3nonc23)cc1[N+](=O)[O-]
(25) CCOC(=O)c1c(C)oc2c1c(C=NC1CCS(=O)(=O)C1)c(O)c1ccccc12 (configuration not stated)
(26) CCCSc1nc2cc(C)c(C)cc2n1CC(C)O (configuration not stated)
(27) CCn1c(SCC(=O)Nc2cccc(C)c2)nc2nc3c(cc2c1=O)COC(C)(C)C3
(28) COc1ccc(NS(=O)(=O)c2ccc(N3CCOCC3)c(NC(=O)c3ccccc3Cl)c2)cc1
(29) O=C(/C=C/c1ccc(O)cc1)c1c(O)cc(O)cc1O
(30) CCCC(=O)Nc1ccc(C#Cc2ccccc2)cc1
compound no.	21	22	23	24	25	26	27	28	29	30
KCNQ2 inh baseline	1.37	-0.11	1.35	0.2	0.75	-1.13	-1.25	0.24	-0.59	0.12
KCNQ2 inh	i	i	i	i	i	i	i	i	i	i

(31) Cc1nn(-c2ccc(Cl)c(Cl)c2Cl)c(=O)c2ccccc12
(32) COc1ccc(CC(=O)Nc2cc(C)ccn2)cc1
(33) Cc1ccccc1/C=N/NC(=O)Cc1ccc(Cl)cc1
(34) CCOc1cc(S(=O)(=O)N2CCC(c3nc4ccccc4s3)CC2)c(OCC)cc1S(=O)(=O)N1CCCCC1
(35) Cc1ccc(CSCCNC(=O)CN(c2ccccc2)S(C)(=O)=O)cc1
(36) CCc1cc2c(-c3ccccc3)cc(=O)oc2cc1OC(C)C(C)=O (configuration not stated)
(37) C=C1c2ccccc2S(=O)(=O)N(Cc2ccccc2)C1COCc1ccccc1 (configuration not stated)
(38) COc1cc2c(cc1NC(=O)C(C)Sc1cccc[n+]1[O-])oc1ccccc12 (configuration not stated)
(39) CCCc1nnc(SCC(=O)N2CCCC(C)C2)n1CCCOC (configuration not stated)
(40) O=C(c1ccc(-n2cncn2)c([N+](=O)[O-])c1)N1CCN(S(=O)(=O)c2c(F)cccc2F)CC1
compound no.	31	32	33	34	35	36	37	38	39	40
KCNQ2 inh baseline	-0.05	-1.24	-0.5	0.19	0.92	1.83	-0.56	-0.65	-0.56	0.01
KCNQ2 inh	i	i	i	i	i	i	i	i	i	i

(41) Cn1nc(C(F)(F)F)c(/C=N/OC(=O)c2ccccc2Cl)c1SCc1ccccc1Cl
(42) C/C(=C\c1ccccc1)C(=O)NC1CCSC1=O (configuration not stated)
(43) CCOC(=O)C(=Cc1ccc(OCc2ccc([N+](=O)[O-])cc2)c(OC)c1)C(=O)OCC
(44) COc1cccc(CNC(=O)CCS(=O)(=O)c2cccc3nsnc23)c1
(45) OCC1(CCOc2ccccc2)CCN(Cc2ccccc2OC(F)F)CC1
(46) O=C(Oc1ccc(C(=S)N2CCCCC2)cc1)c1ccccc1
(47) Cc1nc(-c2ccccc2)nc2[nH]c(-c3ccccc3)cc(=O)c12
(48) Cc1cc(C)nc(NS(=O)(=O)c2ccc(N3C(=O)c4ccccc4C3=O)cc2)n1
(49) O=C(COn1nnc2ccccc21)NCC1CCCCC1
(50) C/C(=N\NC(=O)c1cccc(S(=O)(=O)N2CCCC2)c1)c1cccs1
compound no.	41	42	43	44	45	46	47	48	49	50
KCNQ2 inh baseline	-0.56*	-2.14	0.14	-0.52	-0.9	0.83	0.48	-1.94	-0.46	2.56
KCNQ2 inh	-5.95*	i	i	i	i	i	i	i	i	i

Profiles as entered above.
`CCOC(=O)C(=Cc1ccc(OCc2ccc([N+](=O)[O-])cc2)c(OC)c1)C(=O)OCC` is listed as KCNQ2 inh baseline: 0.14; KCNQ2 inh: i
`COc1cccc(CNC(=O)CCS(=O)(=O)c2cccc3nsnc23)c1` is listed as KCNQ2 inh baseline: -0.52; KCNQ2 inh: i

The list goes on.
(51) O=C(OCC1OC(n2ncc(=O)[nH]c2=O)C(OC(=O)c2ccccc2)C1OC(=O)c1ccccc1)c1ccccc1 (configuration not stated)
(52) O=C(CN1C(=O)C2C3C=CC(C3)C2C1=O)Nc1ccc2nccnc2c1 (configuration not stated)
(53) O=C(c1ccc(F)cc1)n1cc(C(=S)N2CCOCC2)c2ccccc21
(54) COc1ccc(C=C2C(=O)OC(C)(C)OC2=O)cc1OC
(55) CCOC(=O)N1CCN(CCC(=O)Nc2ccc(Br)c(C)c2)CC1
(56) O=C(NC1CCCC1)c1cc(-c2ccc(Cl)cc2Cl)on1
(57) Cc1nnc(N2C(=O)c3cccc4c([N+](=O)[O-])ccc(c34)C2=O)s1
(58) CCOc1ccc(NC(=O)Nc2ccon2)cc1
(59) COc1cc2c(cc1OC)-c1cc(Nc3ccc(F)cc3)nc(=O)n1CC2
(60) Cc1cc(C(=O)NCc2ccco2)on1
compound no.	51	52	53	54	55	56	57	58	59	60
KCNQ2 inh baseline	0.57*	0.03	0.71	1.63	2.23	-2.05	-0.67	-0.06	1.17	-0.74
KCNQ2 inh	-11.1*	i	i	i	i	i	i	i	i	i

(61) O=C(CCN1C(=O)c2cccc([N+](=O)[O-])c2C1=O)Nc1nccs1
(62) Cc1ccc(SCC(=O)OCC(=O)N(C)CC(=O)Nc2ccccc2Cl)cc1
(63) COc1ccc(NC2(c3ccc(Cl)cc3)C(=O)c3ccccc3C2=O)cc1
(64) CCOC(=O)c1cc(C#N)c(Oc2cccc(C(F)(F)F)c2)nc1-c1ccccc1
(65) CCOc1ccccc1CNCCN1CCOCC1
(66) Cc1csc(CNC(=O)C2CCC(=O)N(CCCc3ccccc3)C2)n1 (configuration not stated)
(67) CCOC(=O)c1c(CN(C)C)n(-c2ccccc2)c2cc(Br)c(OC)cc12
(68) Cn1c(Cc2ccccc2)n[nH]c1=S
(69) Cc1nnc(NC(=O)C2COc3ccccc3O2)s1 (configuration not stated)
(70) COc1ccc(Cl)cc1Nc1nc(C)cc(C)c1C(N)=O
(71) CCCCCNC(=O)CCCCn1c(=O)[nH]c2cc(OCC)c(OCC)cc2c1=O
(72) CN(C)C(=O)COc1ccc(C(=O)/C=C/c2cccnc2)cc1
compound no.	61	62	63	64	65	66	67	68	69	70	71	72
KCNQ2 inh baseline	0.19	0.65	-0.54	2.51	2.26	0.02	-2.02*	-0.44	2.21	-0.02	1.5	0.25
KCNQ2 inh	i	i	i	i	i	i	-6.24*	i	i	i	i	i

Of the compounds above, these contain an aryl methoxy group:
(12) COc1cccc(-c2nnn(CC(=O)Nc3cc(OC)c(NC(=O)c4ccco4)cc3OC)n2)c1
(13) COc1ccccc1/C=C\C(=O)NCC(=O)N/N=C(/C)c1cccc([N+](=O)[O-])c1
(28) COc1ccc(NS(=O)(=O)c2ccc(N3CCOCC3)c(NC(=O)c3ccccc3Cl)c2)cc1
(32) COc1ccc(CC(=O)Nc2cc(C)ccn2)cc1
(38) COc1cc2c(cc1NC(=O)C(C)Sc1cccc[n+]1[O-])oc1ccccc12 (configuration not stated)
(43) CCOC(=O)C(=Cc1ccc(OCc2ccc([N+](=O)[O-])cc2)c(OC)c1)C(=O)OCC
(44) COc1cccc(CNC(=O)CCS(=O)(=O)c2cccc3nsnc23)c1
(54) COc1ccc(C=C2C(=O)OC(C)(C)OC2=O)cc1OC
(59) COc1cc2c(cc1OC)-c1cc(Nc3ccc(F)cc3)nc(=O)n1CC2
(63) COc1ccc(NC2(c3ccc(Cl)cc3)C(=O)c3ccccc3C2=O)cc1
(67) CCOC(=O)c1c(CN(C)C)n(-c2ccccc2)c2cc(Br)c(OC)cc12
(70) COc1ccc(Cl)cc1Nc1nc(C)cc(C)c1C(N)=O
compound no.	12	13	28	32	38	43	44	54	59	63	67	70
KCNQ2 inh baseline	1.11	0.22	0.24	-1.24	-0.65	0.14	-0.52	1.63	1.17	-0.54	-2.02*	-0.02
KCNQ2 inh	i	i	i	i	i	i	i	i	i	i	-6.24*	i

Bioassay records from PubChem.

Not all compounds are listed, so the mix of outcomes need not match the whole.
